# Assay outcomes from PubChem.
# TRPML1 agonist: human mucolipin-1 channel agonism; activation, % (concentration not given with the values); AID 624414; TRPML1-expressing cells, Ca2+ dye fluorescence, FDSS; host cell line not named in the record; reference of the full effect not given here; actives 0.12% (n = 410,000); Q9GZU1; in the data active = activation above about 50%; inconclusive = about 30% to 50%; inactive = below about 30%; further: 0% is about no effect; the text of the record puts the active cut at 80%
# Target sequence (Q9GZU1 whole entry, looked up): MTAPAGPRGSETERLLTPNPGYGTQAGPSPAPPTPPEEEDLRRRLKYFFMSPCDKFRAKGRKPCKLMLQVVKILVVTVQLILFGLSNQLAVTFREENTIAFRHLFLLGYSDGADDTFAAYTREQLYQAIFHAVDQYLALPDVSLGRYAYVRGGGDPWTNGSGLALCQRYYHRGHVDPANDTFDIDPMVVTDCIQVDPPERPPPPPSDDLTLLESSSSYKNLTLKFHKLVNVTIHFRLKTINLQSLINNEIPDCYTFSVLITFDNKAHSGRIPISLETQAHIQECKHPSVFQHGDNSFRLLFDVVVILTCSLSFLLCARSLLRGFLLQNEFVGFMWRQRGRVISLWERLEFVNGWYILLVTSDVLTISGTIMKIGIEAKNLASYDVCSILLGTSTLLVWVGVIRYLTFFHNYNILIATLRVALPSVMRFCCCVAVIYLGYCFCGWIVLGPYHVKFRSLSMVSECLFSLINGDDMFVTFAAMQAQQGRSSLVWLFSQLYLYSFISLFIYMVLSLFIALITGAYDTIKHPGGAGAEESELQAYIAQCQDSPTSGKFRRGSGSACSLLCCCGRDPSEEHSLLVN
#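 Agonist activity was taken from a 110 s kinetic Ca2+ dye read on the FDSS after pinning compounds onto TRPML1-DL cells. The cells were seeded at 1,500/well with Tet inducer, incubated about 16 h, then dye-loaded at room temperature.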
# TRPML1 blocker: human mucolipin-1 channel inhibition. Q9GZU1. TRPML1-inducible cells, Ca2+ dye fluorescence, FDSS; stronger effect = lower value; inhibition of EC80 agonist-evoked calcium signal. activity change, negative = inhibition, % (test concentration not listed). actives 0.02% (n = 390,000); in the data active means activity change below about -50%; inconclusive means about -30% to -50%; inactive means above about -30%;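 further: stimulus is agonist 54-4 at its EC80 concentration; on the % scale 0 is the no-effect control and ±100 the full control effect; compound concentration not given in the record; the text of the record puts the active cut at -80%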
#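 Tet-induced TRPML1-DL cells loaded with Ca8 no-wash calcium dye were read kinetically on FDSS. Compound addition was followed by EC80 agonist 54-4 (4 uM final); inhibition was read over 110 s.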
# CtBP-E1A inh: blocks the CtBP interaction with E1A; AlphaScreen GST-E1A/His-CtBP binding, 1536-well; stronger effect = lower value; control for the full effect not named in the record; activity change, % (no concentration beside the values); actives 0.49% (n = 340,000); AID 651724; in the data active means activity change below about -65%; inconclusive means about -30% to -65%; inactive means above about -30%; further: on the % scale 0 is the no-effect control and ±100 the full control effect; compound concentration not given in the record
#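 Homogeneous bead-based format: GST-tagged E1A captured on glutathione donor beads, His-tagged CtBP on nickel acceptor beads; compounds precede bead addition by 2 h at 37 °C.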
# D2 agonist: human D2 receptor agonism in beta-arrestin assay. activation, % (concentration not given with the values). P14416. actives 0.084% (n = 360,000). DiscoveRx PathHunter D2 beta-arrestin, luminescence, 90 min; 100% = 57 uM dopamine signal; in the data active = activation above about 40%; inconclusive = about 15% to 40%; inactive = below about 15%; further: compound concentration not given in the record; the text of the record calls up to 30% inactive
# Target sequence (P14416 whole entry, looked up): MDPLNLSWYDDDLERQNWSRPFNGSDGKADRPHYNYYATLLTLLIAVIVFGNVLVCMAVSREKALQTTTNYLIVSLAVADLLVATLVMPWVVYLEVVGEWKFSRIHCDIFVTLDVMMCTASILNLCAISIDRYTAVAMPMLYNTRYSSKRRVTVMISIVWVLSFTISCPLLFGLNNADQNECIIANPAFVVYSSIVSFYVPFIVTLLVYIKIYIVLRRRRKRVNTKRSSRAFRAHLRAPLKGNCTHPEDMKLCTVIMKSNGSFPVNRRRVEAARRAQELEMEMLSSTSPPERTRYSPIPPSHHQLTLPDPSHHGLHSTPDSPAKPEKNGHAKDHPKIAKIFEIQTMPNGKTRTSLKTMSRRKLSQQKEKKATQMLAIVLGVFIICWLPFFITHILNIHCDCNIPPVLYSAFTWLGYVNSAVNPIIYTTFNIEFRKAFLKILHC
#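 DiscoveRx PathHunter D2 beta-arrestin cells (2,100/well) attached overnight, then compound-stimulated 90 min at 37 C in HBSS/10 mM HEPES/0.1% Tween-20 buffer; beta-galactosidase complementation read by luminescence after 1 h at ambient temperature. Dopamine 57 uM final (EC100) as control.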
# Six1-Eya2 inh: inhibitors of human Six1/Eya2 interaction. activity change, % (test concentration not listed). AID 651725. actives 0.56% (n = 360,000). AlphaScreen GST-Six1/His-Eya2 binding, biochemical; stronger effect = lower value; control for the full effect not named in the record; in the data active = activity change below about -65%; inconclusive = about -30% to -65%; inactive = above about -30%; further: on the % scale 0 is the no-effect control and ±100 the full control effect; compound concentration not given in the record
#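 Six1/Eya2 binding was read as AlphaScreen signal after compounds were pinned into GST-Six1 plus His-tagged Eya2 (5X stock 250/500 nM) in pH 8.0 Tris/NaCl/TCEP buffer, beads added, then incubated 1 h, 37 C, dark.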
# PINK1 expr mod: PINK1 expression modulation. PINK1 immunofluorescence, high-content cytometry, 24 h. Potency, µM (titrated, usually from 76.6 µM), for the others: at the highest dose activation (PINK1 increase), actives largely listed as activators. actives 0.2% (n = 410,000). AID 624263; active = well fitted activation curve with a large enough effect; inconclusive = small, poorly fitted or top-dose-only effect; inactive = flat fitted curve, though single readings scatter; cell line not stated here;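 further: potency means the concentration at half of the fitted maximal effect; % of control where 0% means no effect; nearly all actives have a fitted effect of over 65% in size; a mitochondrial uncoupler was the plate control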
#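 Stable cell line, 250 cells/well, 12 h attachment; compounds pinned at 5 concentrations, 24 h; CCCP control. Fixed with nuclear dye, primary antibodies 12 h at 10 degrees C, secondary plus cell stain; laser-scanning cytometer read.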
# Numbers without * were called inactive; u = inconclusive; x = not tested or not shown; [ ] = dose if it differs, or a comment. Rows were taken by chance; about 1% have a hit in one of these screens.
SMILES,TRPML1 agonist,TRPML1 blocker,CtBP-E1A inh,D2 agonist,Six1-Eya2 inh,PINK1 expr mod
C/C(=N\Nc1ccc(S(=O)(=O)Nc2ccccc2)cc1[N+](=O)[O-])c1ccc(N2CCOCC2)cc1,0.6,-8,x,0.5,-18,-0.2%
CCc1ccc(C(C)NC(=O)c2cccs2)cc1 (stereo not drawn),1.5,42,3,6.6,4,-0.9%
Cc1cc(C)c2nc(NC(=O)CN3C(=O)NC4(CCCC4)C3=O)sc2c1,-0.2,0,-3,-6.5,-5,1.4%
O=C(NCCOc1ccccc1)N1[C@H]2CC[C@@H]1C=C(c1ccc(F)cc1OCc1ccccc1)C2,0.2,-13,0,1.0,-4,-0.2%
Cc1c2cnn(CC(=O)NCc3ccc(F)cc3)c(=O)c2c(C)n1Cc1cccc(Cl)c1,-0.7,-4,x,x,x,5.4%
CN(CC(=O)Nc1ccccc1Br)C(=O)CCc1nc2ccccc2c(=O)[nH]1,0.1,-2,2,-3.3,-5,-0.9%
Cc1nc2sc(C(c3ccc(Cl)cc3)N3CCN(CCO)CC3)c(O)n2n1 (stereo not drawn),-0.7,-8,1,-3.2,2,1.2%
O=C(NCc1cccc(C(F)(F)F)c1)N1CCN(C(=O)c2ccccc2)CC1,1.0,5,8,-4.1,0,0.6%
Cn1c(=O)cc(SCC(=O)N2CCN(c3ccccc3F)CC2)c2ccc(Cl)cc21,-0.7,-12,x,x,x,1.5%
CC1CCC2(CC1)NC(=O)N(CC(=O)N1CCc3ccccc3C1)C2=O (stereo not drawn),0.7,3,3,-1.0,12,1.1%
COC(=O)C1CCC(C)(C(=O)Nc2ccccc2)C1(C)C (stereo not drawn),0.2,6,-3,-0.2,8,-2.8%
Cc1c(OC(C)C(=O)NCC2CCC(C(=O)O)CC2)ccc2c(-c3ccccc3)cc(=O)oc12 (stereo not drawn),x,x,-24,-3.1,2,0.2%
CCOc1ccc(NS(=O)(=O)c2cccc(C(=O)N3CCN(C/C=C/c4ccccc4)CC3)c2)cc1,-0.7,6,12,6.2,-25,-1.2%
COc1ccccc1C(=O)Nc1ccnn1C1CCN(C(=O)c2ccoc2)CC1,0.2,30,-2,-1.4,4,3.3%
NC(=O)C[C@@H]1N[C@]2(C(=O)Nc3ccccc32)[C@@H]2C(=O)N(c3cc(C(F)(F)F)ccc3Cl)C(=O)[C@H]12,-0.3,-10,9,-1.6,4,1.6%[38.3 µM]
COc1ccc(Nc2c3c(nc4nncn24)CCC3)cc1OC,1.0,36,x,x,x,-1.2%
CS(=O)(=O)c1ccc2nc(N)sc2c1,2.5,28,4,-1.0,-2,-2.4%
Cc1ccc(S(=O)(=O)c2ncccc2N)cc1,-0.2,-1,x,-2.8,7,1.4%
CCN(CCCNC(=O)c1cc2c(-c3cccc(OC)c3)nn(C)c2s1)Cc1ccccc1,0.5,20,u,3.9,-23,-1.3%
Cc1ccc(C)c(CSCc2nc3ccccc3[nH]2)c1,1.3,-2,-2,8.5,0,0.0%

# Profiles from above.
# Profile of CC1CCC2(CC1)NC(=O)N(CC(=O)N1CCc3ccccc3C1)C2=O (stereo not drawn) → TRPML1 agonist: 0.7; TRPML1 blocker: 3; CtBP-E1A inh: 3; D2 agonist: -1.0; Six1-Eya2 inh: 12; PINK1 expr mod: 1.1%
# Profile of O=C(NCCOc1ccccc1)N1[C@H]2CC[C@@H]1C=C(c1ccc(F)cc1OCc1ccccc1)C2 → TRPML1 agonist: 0.2; TRPML1 blocker: -13; CtBP-E1A inh: 0; D2 agonist: 1.0; Six1-Eya2 inh: -4; PINK1 expr mod: -0.2%

# (next part)
SMILES,TRPML1 agonist,TRPML1 blocker,CtBP-E1A inh,D2 agonist,Six1-Eya2 inh,PINK1 expr mod
COC(=O)C1=C(C)NC(C)=C(C(=O)OCC2CCCO2)C1c1cccc(Cl)c1 (stereo not drawn),-0.1,7,12,1.4,5,1.4%
Cc1ccc(NS(=O)(=O)c2c(C(=O)N3CCOCC3)c(C)n(C)c2C)cc1,0.4,0,5,-5.4,0,-1.2%
O=C(O)C(CO)N=Cc1c(O)c2ccccc2oc1=O (stereo not drawn),0.8,-3,-8,-1.5,-1,-0.5%
CCOC(=O)/C(=C\C=C\c1ccccc1)NC(=O)c1ccccc1,-0.8,3,0,-8.7,4,-1.1%
COc1ccc(S(=O)(=O)NCC(c2cccnc2)N2CCN(C)CC2)cc1OC (stereo not drawn),1.1,-21,-9,-1.4,16,1.7%
COC(=O)c1ccc(C(=O)OCc2nc3cc4ccccc4cc3[nH]2)cc1,-0.8,-14,1,-2.5,-4,-1.6%
O=C(O)c1ccc(S(=O)(=O)c2ccccc2)s1,-0.3,-1,-1,-1.7,9,2.1%
O=c1c2nnn(-c3ccc(Cl)cc3)c2ncn1Cc1ccccn1,0.2,11,-5,-6.1,-1,4.8%
O=C(N/N=C/c1ccc(O)cc1)c1csc2c1CCCC2,-0.2,7,-3,-1.2,-15,3.5%
CCOC(=O)CN1CC23C=CC(O2)C(C(=O)N2CCN(c4ccc(F)cc4)CC2)C3C1=O (stereo not drawn),0.1,-10,0,-7.5,1,-1.1%
CCOC(=O)N1CCN(S(=O)(=O)c2c(C)cc(C)cc2C)CC1,0.0,9,8,0.8,-18,0.2%
COc1ccccc1-n1ccnc1SCC(=O)NC1CCCC1,0.1,21,11,-1.9,17,1.6%
CC(C)(C)OC(=O)NCCc1onc(-c2ccc([N+](=O)[O-])cc2)c1C(=O)O,-0.8,3,-2,-0.7,4,-2.2%
Cc1nccn1CCC(=O)O,0.1,-6,-2,0.0,-4,-0.9%
COCCOC(=O)c1c(C)n(C)c2ccc(OC(=O)N3CCOCC3)cc12,-0.3,-5,-2,-6.3,-3,-0.7%
CCOc1ccc(NC(=O)CN(c2ccc([N+](=O)[O-])cc2)S(=O)(=O)c2ccccc2)cc1,1.0,-19,2,2.6,u,u
OCCSc1nnc(Nc2ccccc2)s1,-1.1,-11,3,-3.6,-2,2.7%
CC(C)C(NS(=O)(=O)c1cccc2nsnc12)C(=O)Nc1nccs1 (stereo not drawn),0.0,8,8,-1.6,5,3.7%
O=C1NCCCc2c1oc1ccc(O)cc21,-0.4,3,-13,-3.5,-18,-12%[38.3 µM]
CCNc1nc(NCC)nc(SCCOC(=O)COc2ccc(Cl)cc2Cl)n1,4.0,8,-4,4.4,-4,0.9%[38.3 µM]
O=C(COn1nnc2ccc(Cl)cc21)Nc1ccc(F)cc1,0.6,14,x,-2.5,-1,5.0%
CCN(CC)S(=O)(=O)c1cc(NC(=O)Cc2ccc(S(=O)(=O)N3CCOCC3)s2)ccc1Cl,0.7,29,-14,9.1,-6,2.4%
CC(C)[C@H](NC(=O)OCc1ccccc1)C(=O)OCC(=O)Nc1ccc(N2CCOCC2)cc1,0.8,-1,7,-5.5,-2,0.1%
Cn1ncc(Br)c1N1C(=O)CCC1=O,4.1,2,2,4.3,-3,-2.2%
CC[C@]12c3[nH]c4ccc(Cl)cc4c3CCN1C(=O)[C@@H](CC(=O)NCCCn1ccnc1)C[C@@H]2C(=O)N1CCN(C(=O)C2CC2)CC1,-0.6,-3,0,-2.2,-3,0.8%
CC(=O)c1ccc(N2CCN(C(=O)C(=O)c3cn(CC(=O)N4CCOCC4)c4ccccc34)CC2)cc1,-0.3,1,-1,-1.5,6,1.7%
COc1ccc(N2CCN(C(CNC(=O)CC(C)C)c3ccc4c(c3)OCO4)CC2)cc1 (stereo not drawn),0.1,-2,x,x,x,-1.4%
CC[C@H](C)[C@@H]1NC(=O)[C@@H](CC(C)C)NC(=O)[C@H](C(C)C)NC(=O)[C@H]2CSSC[C@H](NC1=O)C(=O)N2,-0.8,x,1,15,4,-1.3%
COc1ccc(NC(=O)c2csc(Cc3ccccc3)n2)cc1,3.6,9,12,-6.6,11,0.4%
FC(F)(F)c1cccc(N2CCN(c3ccc4nnc(-c5ccccc5)n4n3)CC2)c1,1.5,4,49,-1.9,19,7.2%[38.3 µM]

# Of the compounds above, 7 contain an aryl methoxy group:
SMILES,TRPML1 agonist,TRPML1 blocker,CtBP-E1A inh,D2 agonist,Six1-Eya2 inh,PINK1 expr mod
COc1ccccc1C(=O)Nc1ccnn1C1CCN(C(=O)c2ccoc2)CC1,0.2,30,-2,-1.4,4,3.3%
COc1ccc(Nc2c3c(nc4nncn24)CCC3)cc1OC,1.0,36,x,x,x,-1.2%
CCN(CCCNC(=O)c1cc2c(-c3cccc(OC)c3)nn(C)c2s1)Cc1ccccc1,0.5,20,u,3.9,-23,-1.3%
COc1ccc(S(=O)(=O)NCC(c2cccnc2)N2CCN(C)CC2)cc1OC (stereo not drawn),1.1,-21,-9,-1.4,16,1.7%
COc1ccccc1-n1ccnc1SCC(=O)NC1CCCC1,0.1,21,11,-1.9,17,1.6%
COc1ccc(N2CCN(C(CNC(=O)CC(C)C)c3ccc4c(c3)OCO4)CC2)cc1 (stereo not drawn),0.1,-2,x,x,x,-1.4%
COc1ccc(NC(=O)c2csc(Cc3ccccc3)n2)cc1,3.6,9,12,-6.6,11,0.4%

# (next part)
SMILES,TRPML1 agonist,TRPML1 blocker,CtBP-E1A inh,D2 agonist,Six1-Eya2 inh,PINK1 expr mod
O=C(NNC(=O)c1ccccc1[N+](=O)[O-])c1ccc(NC(=O)c2ccccc2)cc1,-0.6,-6,1,-2.4,-13,4.4%
COc1ccc(CCC(=O)N/N=C\c2cccs2)cc1,0.6,-6,x,-2.0,-4,0.0%
CC(=O)Nc1ccc(NC(=O)CSc2nnc3ccc(-c4ccc(F)cc4)nn23)cc1,0.7,2,10,-0.7,-6,0.5%
CC1CC(C)CN(S(=O)(=O)c2ccc(C(=O)Nc3nnc(C4CC4)o3)cc2)C1 (stereo not drawn),0.3,12,-5,1.0,-13,1.4%
Cc1ccc(OCc2cc(C(=O)N3CCN(C4CCCCC4)CC3)no2)cc1C,-1.1,-9,-6,4.2,-24,6.9%
CNC(=O)CN(C1CCCCC1)S(=O)(=O)c1ccc(OC)c(Cl)c1,-0.5,-6,9,-0.9,8,-0.4%
CCCc1cc(=O)oc2cc(OCC(=O)NCCCN3CCOCC3)ccc12,0.4,-2,-4,-2.2,-4,-1.6%
O=c1[nH]c(=S)[nH]cc1Oc1ccc(Br)cc1Br,-0.8,-18,-27,-6.5,-26,-0.6%
COc1cccc(/C=N/Nc2nn3cnnc3c3ccccc23)c1O,-0.7,-2,-91*,-7.2,-87*,5.5%
O=C(Nc1ccc(Cl)c(Cl)c1)N1CC=C(c2ccccc2)CC1,-1.2,-8,2,-2.1,-2,1.2%
CCCc1cc(=O)n2[nH]c(C)c(-c3ccccc3OC)c2n1,-0.8,2,-1,-0.5,0,-1.2%
Cc1ccc2c(C(=O)CCl)c(C)[nH]c2c1,x,x,1,-1.7,2,-0.7%
CC(C)c1ccc(OCC(=O)Nc2c(Cl)ccc3nsnc23)cc1,1.6,0,x,x,x,4.3%
CCC(C)c1ccc(NC(=O)C2CC3CCC2C3)cc1 (stereo not drawn),0.6,11,18,-1.5,5,29%
Cc1cccc(CNC(=O)c2ccc3oc(=O)n(Cc4ccccc4)c3c2)c1,1.9,-7,x,x,x,-1.1%
CC(=O)c1ccc(NC(=O)CCNS(=O)(=O)c2ccccc2F)cc1,0.0,-3,2,0.6,-5,-0.8%
